STK33 kinase inh = blocks human STK33 kinase activity | Q9BYT3 | purified STK33, MBP phosphorylation, ADP-Glo luminescence | inhibition, % at 10 µM | 320,000 tested, 0.073% active | AID 2661;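 active = inhibition at or above 25%, using the most active replicate where run in duplicate; inactive = inhibition below 25%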
Target sequence (Q9BYT3 whole entry, looked up): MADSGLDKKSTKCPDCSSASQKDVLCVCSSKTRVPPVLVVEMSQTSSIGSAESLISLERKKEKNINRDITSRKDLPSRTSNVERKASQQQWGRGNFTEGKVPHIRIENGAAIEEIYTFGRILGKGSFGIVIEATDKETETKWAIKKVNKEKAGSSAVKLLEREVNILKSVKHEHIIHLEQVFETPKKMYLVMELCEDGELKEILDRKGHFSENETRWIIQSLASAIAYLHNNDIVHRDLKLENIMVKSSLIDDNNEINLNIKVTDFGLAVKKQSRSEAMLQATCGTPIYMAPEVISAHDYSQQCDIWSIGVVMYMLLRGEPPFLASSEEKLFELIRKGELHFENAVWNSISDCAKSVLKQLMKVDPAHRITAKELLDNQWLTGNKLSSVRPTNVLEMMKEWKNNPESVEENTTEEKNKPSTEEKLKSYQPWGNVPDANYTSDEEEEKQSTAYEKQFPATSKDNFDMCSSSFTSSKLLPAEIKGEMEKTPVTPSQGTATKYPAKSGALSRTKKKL
The depositor's hits bear a star.

SMILES	STK33 kinase inh
COc1ccc(OC)c(C(=O)NC(CC(N)=O)c2ccc(N3CCN(c4ccccn4)CC3)c([N+](=O)[O-])c2)c1 (configuration not stated)	1.3
COc1cc2c(cc1OC)C(C)N(C(=O)Nc1ccc(F)cc1)CC2 (configuration not stated)	-1.1
CC(=O)Nc1ccc(OCC(O)CN2CCN(c3ccc(C)c(Cl)c3)CC2)cc1 (configuration not stated)	-1.1
O=S(=O)(Nc1ncccn1)c1ccc(Nc2ncnc3ccccc23)cc1	-0.4
CCOC(=O)N1CCN(c2c(NCCOC)c(=O)c2=O)CC1	2.0
COC(=O)c1cc(-c2ccc(OC)cc2F)nc2nc(SC)[nH]c(=O)c12	-0.2
CCOC(=O)c1ccc(N=C2SC(C(=O)NC)CC(=O)N2Cc2ccc(F)cc2)cc1 (configuration not stated)	-2.4
O=C(Cn1cnc2c(cnn2-c2ccc(F)cc2)c1=O)N1CCN(c2ccccc2F)CC1	-1.5
O=C(Nc1ccc(OCC(=O)N2CCOCC2)cc1)c1ccccc1Cl	3.8
CC(=O)Nc1ccc(NC2=CC(=O)CC(C)(C)C2)cc1	-0.8
CCOC(=O)c1ccc(NC(=O)CCn2nnc3ccccc32)cc1	-1.6
O=C(Nc1ccccc1-c1ccccc1)c1ccccc1[N+](=O)[O-]	-0.7
CCc1ccc(S(=O)(=O)Nc2cc3c(cc2N2CCCCC2)n(C)c(=O)c(=O)n3C)cc1	-1.4
COc1ccc2cc(CCNC(=O)c3ccc4c(c3)OCO4)c(=O)[nH]c2c1	-0.2
COc1cccc(CNC(=O)CCCc2c[nH]c3ccccc23)c1	1.5
CCc1nnc(NS(=O)(=O)c2ccc(N/C=C/C(=O)c3ccc(OC)cc3)cc2)s1	-1.2
CC(=O)OC(C(=O)NC1CCCCC1)c1cccc(C)c1 (configuration not stated)	0.1
CCCNC(=O)NC(=O)CSc1cccc(C(F)(F)F)c1	0.8
O=C(c1ccccc1)N1CCCC(C(=O)N2CCCCCC2)C1 (configuration not stated)	-1.4
Cc1oc(-c2ccccc2Cl)nc1CN1CCCN(C(=O)c2ccco2)CC1	-0.6
COc1ccc(-c2nn(-c3ccccc3)cc2C(=O)Nc2ccc(C(=O)O)cc2)cc1OC	-0.8
O=C(O)c1cccc(CSc2n[nH]c(-c3ccc(Cl)cc3Cl)n2)c1	-1.0
COc1ccc(Nc2nc(N)nc(CN3CCN(c4ccc(F)cc4)CC3)n2)cc1	-0.9
COC(=O)c1cccc(N(CC(=O)NC2CCCCC2)C(=O)CNC(=O)c2cccs2)c1	-0.9
O=C(c1c[nH]c2ccccc12)C(F)(F)F	-1.6

A different layout for some results above.
compound | STK33 kinase inh
O=C(c1ccccc1)N1CCCC(C(=O)N2CCCCCC2)C1 (configuration not stated) | -1.4
Cc1oc(-c2ccccc2Cl)nc1CN1CCCN(C(=O)c2ccco2)CC1 | -0.6
COc1ccc(-c2nn(-c3ccccc3)cc2C(=O)Nc2ccc(C(=O)O)cc2)cc1OC | -0.8
O=C(O)c1cccc(CSc2n[nH]c(-c3ccc(Cl)cc3Cl)n2)c1 | -1.0
COc1ccc(Nc2nc(N)nc(CN3CCN(c4ccc(F)cc4)CC3)n2)cc1 | -0.9
COC(=O)c1cccc(N(CC(=O)NC2CCCCC2)C(=O)CNC(=O)c2cccs2)c1 | -0.9

Later entries.
SMILES	STK33 kinase inh
COc1ccc(OC)c(NC(=O)CN2C(=O)NC3(CCOc4ccccc43)C2=O)c1 (configuration not stated)	-2.2
COc1ccc(-c2ccc(CO)o2)cc1N	0.7
CS(=O)(=O)N(CC(=O)Nc1cc(Cl)ccc1Cl)c1ccccc1	-1.7
COc1ccccc1NC(=O)N1CCN(c2ccnc3cc(Cl)ccc23)CC1	-0.7
Cc1ccc(/C=N/NC(=S)NCCc2ccccc2)s1	-0.9
Cc1c(Cl)cccc1NC(=O)NN1CCN(C)CC1	1.4
NC(=O)CSc1nc2ccccc2c(=O)n1Cc1ccccc1	-1.0
O=C(Nc1cccc([N+](=O)[O-])c1)N1CCCCCC1	-1.4
CC(=O)NS(=O)(=O)c1cccnc1Nc1ccc(Cl)cc1	-1.3
O=C1C2C3C=CC(C3)C2C(=O)N1c1n[nH]c(-c2cccnc2)n1 (configuration not stated)	-2.8
C=CC[n+]1c(C)csc1Nc1ccc(C(=O)O)cc1	0.1
Cc1ccc(-n2c(C)c([N+](=O)[O-])c3ccc(O)cc32)cc1	-0.6
CC(=O)NC(Cc1c[nH]c2ccccc12)C(=O)OCC(=O)Nc1cc(C)on1 (configuration not stated)	-4.6
CC1CCC(NCc2ccco2)CC1 (configuration not stated)	-2.6
COc1ccc(CCNC(=O)COC(=O)/C=C/c2ccc(OC)c(OC)c2)cc1	-0.6
O=C(CNS(=O)(=O)c1ccc(F)cc1)Nc1ccc(C(F)(F)F)cc1	0.2
O=C(Nc1cccc2cccnc12)c1ccc(Br)o1	13.0
CCOC(=O)N1CCN(C(=O)C2CCCN(S(=O)(=O)c3c(C)cc(C)cc3C)C2)CC1 (configuration not stated)	-4.5
Cc1ccc(S(=O)(=O)N2c3ccccc3OCC2c2ccccc2)cc1 (configuration not stated)	-1.1
O=C(Nc1nc2ccc([N+](=O)[O-])cc2s1)c1ccncc1	2.2
O=C(NCC(O)c1ccccc1)c1ccccc1 (configuration not stated)	-0.1
O=C(NC1CCCCC1)C(c1ccccc1F)N(Cc1ccco1)C(=O)c1ccccn1 (configuration not stated)	-1.0
O=C(C1CCCN(S(=O)(=O)c2cccc3nsnc23)C1)N1CC=C(c2ccccc2)CC1 (configuration not stated)	-0.8
COc1ccc(C)cc1NC(=O)CC(NC(C)=O)c1ccccc1 (configuration not stated)	0.2
O=C(CSc1ncc(-c2ccc(F)cc2)n1Cc1ccco1)Nc1nccs1	-0.6

Nothing new here: entries from further up.
SMILES	STK33 kinase inh
O=C1C2C3C=CC(C3)C2C(=O)N1c1n[nH]c(-c2cccnc2)n1 (configuration not stated)	-2.8
C=CC[n+]1c(C)csc1Nc1ccc(C(=O)O)cc1	0.1
Cc1ccc(-n2c(C)c([N+](=O)[O-])c3ccc(O)cc32)cc1	-0.6
CC(=O)NC(Cc1c[nH]c2ccccc12)C(=O)OCC(=O)Nc1cc(C)on1 (configuration not stated)	-4.6
CC1CCC(NCc2ccco2)CC1 (configuration not stated)	-2.6
COc1ccc(CCNC(=O)COC(=O)/C=C/c2ccc(OC)c(OC)c2)cc1	-0.6

The list continues.
SMILES	STK33 kinase inh
CC1CCCC/C1=N\NC(=S)Nc1cccnc1 (configuration not stated)	-0.7
COc1ccc(/C=N\NC(=O)c2cccc([N+](=O)[O-])c2)cc1Cn1cc([N+](=O)[O-])cn1	0.0
COCCNC(=O)c1cc2cc(Cl)cc(Cl)c2oc1=O	0.6
COC(=O)c1ccc(CNC(=O)COC(=O)c2ccc(N(C)C)cc2)cc1	2.5
COc1ccccc1-n1c(SCC(=O)NC(C)(C)C)nc(O)cc1=O	-1.3
CCOC(=O)c1nnc2cc(-c3ccccc3)nn2c1C	-3.8
Cc1cc(C)n2nc(SCC(=O)N(C)C3CCCCC3)nc2n1	-1.4
CCOc1ccc(NC(=O)CCC(=O)NNC(=O)COc2ccc(C)cc2)cc1	-0.4
CCC(=O)Nc1ccc(NC(=O)CN2CCCC(C)C2)c(Cl)c1 (configuration not stated)	0.4
Cc1sc2nc(CC(=O)N3CCCC3)[nH]c(=O)c2c1C	-1.4
CCN(Cc1ccccc1)S(=O)(=O)c1ccc(C(=O)N(CCCN(C)C)c2nc3cc4c(cc3s2)OCCO4)cc1	0.2
C=CCN(C(=O)CCC(=O)Nc1cc(C)on1)C(C(=O)NC(C)(C)C)c1ccc(OC)cc1 (configuration not stated)	-0.9
COc1ccccc1-c1ccc(/C=C2\C=CC(=O)O2)o1	-1.8
CCOc1ccc(/C=C2\SC(=O)N(CCNC(=O)C3COc4ccccc4O3)C2=O)cc1OC (configuration not stated)	-1.4
Cc1ccc(CSCCNC(=O)/C=C/c2ccc(Cl)cc2)cc1	-4.5
COc1ccc(OC)c(NC(=O)C2CCCN2C(=O)C2CCC(C)CC2)c1 (configuration not stated)	2.0
CN(C)c1ccc(/C=N/N2CCN(Cc3ccccc3Cl)CC2)cc1	-0.8
COc1cc(-c2nc3ccc(C)cn3c2NCc2ccccc2)ccc1SC1CCCCC1	-0.3
S=C(Nc1cc(Cl)ccc1Cl)Nn1cnnc1	-1.5
CCCCCC(=O)Nc1c(-c2cccs2)c(=O)c2ccccc2n1C	0.2
COc1ccc(C(=O)NCCc2c[nH]c3ccccc23)cc1S(=O)(=O)N1CCOCC1	-1.0
Cc1cn2c(N)c(/C=C3\C=Nc4ccccc43)c(=O)nc2s1	-0.2
O=C(Nc1ccc2ccccc2c1)N1CCN(c2ncccc2C(F)(F)F)CC1	-0.7
Cc1ccc(-n2c([C@@H]3C[C@H]3c3ccccc3)n[nH]c2=S)cc1	-0.9
Cc1ccc(-n2nnnc2SCc2nc3sc(C)c(C)c3c(=O)[nH]2)cc1	-1.3

3 structures out of the list, arranged by heavy-atom count, highest first.
SMILES	STK33 kinase inh
C=CCN(C(=O)CCC(=O)Nc1cc(C)on1)C(C(=O)NC(C)(C)C)c1ccc(OC)cc1 (configuration not stated)	-0.9
CCOc1ccc(NC(=O)CCC(=O)NNC(=O)COc2ccc(C)cc2)cc1	-0.4
Cc1ccc(CSCCNC(=O)/C=C/c2ccc(Cl)cc2)cc1	-4.5

Following part
SMILES	STK33 kinase inh
Cn1c(NC(=O)C[n+]2cc(-c3ccc(F)cc3)n3c2CCC3)cc(=O)n(C)c1=O	-0.6
Cc1cc(NC(=O)c2ccc3c(c2)OCO3)ccc1NC(=O)c1ccccc1	0.5
Cc1nc2c(C)cccn2c1/C(O)=C1\C(=O)C(=O)N(CCN2CCOCC2)C1c1cccs1 (configuration not stated)	1.4
O=C(c1cc(-c2cccc(O)c2)on1)N1CCCCC1	0.6
C=CCC1(O)CC(c2ccco2)NC(c2ccco2)C1CCC (configuration not stated)	-1.0
COc1ccc(OC)c2sc(NC(=O)C3COc4ccccc4O3)nc12 (configuration not stated)	-0.8
CCOc1cc2c3c(c1)C1(OCCO1)C(=O)N3C(C)(C)CC2C (configuration not stated)	-1.0
CCn1nc(NS(=O)(=O)c2ccc([N+](=O)[O-])cc2)c2cc3ccc(C)cc3nc21	-0.4
O=C(Nc1ccc(Br)cc1)c1cccc(S(=O)(=O)Nc2cnc3ccccc3c2)c1	-1.5
Cc1ccc(NCc2nnc(SCC(=O)N3CCc4ccccc43)n2C)cc1	0.5
CC(=O)Nc1ccc(S(=O)(=O)N(C)CC(=O)NCCC2=CCCCC2)cc1	0.5
CCOc1ccc(NC2=NC(C(=O)NCc3ccccc3)CC(=O)N2)cc1 (configuration not stated)	-0.3
CCOCC(=O)Nc1ccccc1C(=O)O	1.3
O=C1c2c(O)cc(O)cc2O[C@H](c2ccc(O)c(O)c2)[C@H]1O	5.3
Cc1cc([N+](=O)[O-])ccc1NC1CCCC1	0.0
COC(=O)CSc1cc(C)nc(SC)n1	-1.3
CCC(=O)NC(=Nc1nc2ccccc2s1)NC(=O)CC	1.3
Cc1ccc(NC(=O)c2ccc(F)c(S(=O)(=O)N3CCOCC3)c2)cc1F	0.0
COc1cc(/C=N/NC(=O)c2ccccc2)ccc1OS(=O)(=O)c1ccccc1	-1.2
CCOC(=O)c1cccc(NC(=O)CSc2nncn2-c2ccccn2)c1	-0.5
Cc1cccnc1NC(=O)Nc1cccs1	-0.9
CC[N+](CC)(CC)CCC(O)(c1ccccc1)C1CCCCC1 (configuration not stated)	-0.7
O=C(NCC1CC1)C1(S(=O)(=O)c2ccccc2)CC=CC1	0.6
CC1(C(=O)O)C=CC2(CCCCC2)N1C(=O)c1ccccc1 (configuration not stated)	0.1
CCCCn1c(N)c(N(CCOC)C(=O)c2ccc(S(=O)(=O)N3CCC(C)CC3)cc2)c(=O)[nH]c1=O	-0.5
(continued)
SMILES	STK33 kinase inh
CCOC(=O)C1CCN(C(=O)Nc2cc(Cl)cc(Cl)c2)CC1	0.2
COCCNC(=O)CSC1=N/C(=C/c2ccc(Cl)c(Cl)c2)C(=O)N1c1ccccc1F	-0.4
CCOc1ccc(CN2CCN(Cc3cccn3-c3ncccn3)CC2CCO)cc1 (configuration not stated)	1.0
CC(=O)N1CCc2cc(Br)cc(S(=O)(=O)NCCN3CCCCC3C)c21 (configuration not stated)	-1.0
CCc1ccc(Nc2nc(C)cc(C)c2C(N)=O)cc1	0.6
CC(C)(C)c1ccc(-c2nnc3sc(-c4ccncc4)nn23)cc1	0.2
Nc1ccccc1Nc1nc2ccccc2[nH]1	10.4
S=c1[nH]nc(-c2ccco2)n1/N=C/c1ccccc1Cl	-1.3
Cc1ccc2cccc(NC3OC(=O)c4ccccc43)c2n1 (configuration not stated)	0.9
Cc1cc(N2CCOCC2)ccc1/C=C1/SC(=O)NC1=O	0.3
CCn1cc(C(=O)NCC(OC)OC)c(=O)c2cc(S(=O)(=O)N(C)C3CCCCC3)ccc21	1.3
COc1ccc(/C=N/NC(=O)c2ccccc2Cl)cc1CSc1nc2ccccc2s1	-2.3
Nc1ccccc1NC1=CC(=O)CC(c2ccco2)C1 (configuration not stated)	1.8
CCOc1c2ccc(C(=O)N[C@H](C)C3CCCCC3)cc2nn1CC	-1.6
COc1ccc(NC(=O)c2ccco2)cc1NC(=O)c1c(OC)cccc1OC	-0.4
CC(C)CCNC(=O)CN(CC1CCCO1)C(=O)CCC(=O)Nc1nccs1 (configuration not stated)	0.0
C=C1CCC[C@]2(C)C[C@H]3OC(=O)C(CN(C)CC(OC)OC)[C@H]3CC12 (some centres not stated)	-1.0
CC(C)CC(=O)Nc1ccc(S(=O)(=O)N2CCCC2)cc1	-0.1
CCCCCn1c(=O)[nH]c2cc(C(=O)O)ccc2c1=O	0.7
CC(=O)N1CC(=O)N(OCc2ccccc2)C1c1ccc(Cl)cc1Cl (configuration not stated)	-1.2
Cn1c(NC(=O)c2cc(-c3ccc4c(c3)OCO4)nc3ccccc23)cc(=O)n(C)c1=O	-0.7
CCN1C(=O)[C@H]2[C@@H](c3ccc(-c4ccc(C(C)=O)cc4)c(OC)c3)N[C@@](Cc3ccccc3)(C(=O)OC)[C@H]2C1=O	-0.8
CCC(C)(C)NC(=O)C(c1cccc(OC)c1OC)N(C(=O)CCC(=O)Nc1cc(C)on1)C(C)C (configuration not stated)	0.0

From PubChem

An excerpt; most or all hits stand in other tables.
